# gsp ag = activates gsp, the McCune-Albright syndrome mutation; gsp mutant cells, cAMP HTRF, 30 min; control for the full effect not named in the record; Potency, µM (series often up to 76.9 µM), for inactives: at the highest dose activation (cAMP increase), most hits filed as activators; 0.13% of 340,000 active; active = well fitted activation curve with a large enough effect; inconclusive = small, poorly fitted or top-dose-only effect, or another doubt; inactive = no such curve, though single readings can be large or run the other way; cell line not stated here;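 also: phosphodiesterase inhibitor Ro 20-1724 added with compounds to block cAMP breakdown; potency is read from the fitted curve at half-maximal effect; nearly all actives have a fitted effect of over 60% in size; about a fifth of the inactives were tested at one dose only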
#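 Cells stably selected in G418 were plated at 2000/well, grown 16-24 hr, then given compounds in DMSO with the PDE inhibitor […] (300 uM solution added) for 30 min at 37C; cAMP was read by HTRF.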
# ClpP mod = qHTS Assay for Activators of ClpP | ATP-dependent Clp protease proteolytic subunit (Bacillus subtilis (strain 168)), P80244 | purified B. subtilis ClpP, FRET peptide cleavage, 20 min | Potency, µM (doses to about 57.5 µM), without a hit: top-dose activity change, negative = active | 1.9% of 340,000 active; active = well fitted falling curve with a large enough effect; inconclusive = small, poorly fitted or top-dose-only effect; inactive = no such curve, though single readings can be large or run the other way; also: potency is read from the fitted curve at half-maximal effect; the source files actives as falling curves though it sought activators and does not explain the sign; nearly all actives have a fitted effect of over 65% in size; many hits overshoot -100%
# Target sequence (P80244 whole entry, looked up): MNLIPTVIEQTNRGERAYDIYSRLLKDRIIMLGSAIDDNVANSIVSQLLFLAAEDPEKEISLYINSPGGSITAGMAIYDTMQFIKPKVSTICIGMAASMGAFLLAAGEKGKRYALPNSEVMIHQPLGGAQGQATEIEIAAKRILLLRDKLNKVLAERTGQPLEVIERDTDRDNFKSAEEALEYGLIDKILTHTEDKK
#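 Buffer: 100 mM Tris/HCl pH8, 100 mM KCl, 0.05% low protease BSA, 2.5% glycerol, 0.01% Tween-20. ClpP 10 microg/mL final; 20 min RT; delta FRET normalized to ADEP and DMSO controls.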
# D2 potentiator = human D2 receptor positive allosteric modulation; P14416; DiscoveRx D2 beta-arrestin cells, luminescence, 90 min; 100% = 57 uM dopamine signal; potentiation, % (concentration not given with the values); 0.23% of 360,000 active; active = potentiation of 50% or more; inconclusive = 30% to 50%; inactive = 30% or less;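 also: compound concentration not given in the record; tested on top of an EC20 dose of dopamine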
# Target sequence (P14416 whole entry, looked up): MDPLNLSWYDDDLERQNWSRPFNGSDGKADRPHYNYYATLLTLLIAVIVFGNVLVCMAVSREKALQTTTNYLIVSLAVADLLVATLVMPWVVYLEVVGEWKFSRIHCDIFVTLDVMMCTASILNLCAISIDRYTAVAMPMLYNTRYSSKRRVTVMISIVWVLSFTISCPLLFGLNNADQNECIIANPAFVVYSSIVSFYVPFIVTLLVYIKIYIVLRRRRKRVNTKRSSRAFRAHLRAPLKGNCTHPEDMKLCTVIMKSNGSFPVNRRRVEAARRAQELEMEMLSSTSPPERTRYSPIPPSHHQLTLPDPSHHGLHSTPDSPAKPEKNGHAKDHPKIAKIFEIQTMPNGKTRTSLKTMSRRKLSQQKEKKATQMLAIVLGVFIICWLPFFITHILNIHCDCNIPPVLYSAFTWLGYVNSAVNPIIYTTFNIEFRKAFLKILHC
#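 D2 cells co-treated with compound plus 50 nM dopamine (EC20) for 90 min at 37 deg C to detect potentiation. Beta-arrestin recruitment was read as enzyme-fragment luminescence after 1 h at ambient temperature. Full response was set by 57 uM dopamine.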
# Menin-MLL FL inh = inhibitors of human menin-MLL interaction, wild-type MLL peptide. Fluorescence polarization, fluorescein-MLL peptide displacement from menin. FP activity change, % at 61.4 µM. 290,000 tested, under 10 active. AID 1766; inconclusive = falling polarisation curve, or a change in total fluorescence; inactive = total fluorescence flat and polarisation flat or rising; no compound was filed as active; the % refers to the polarisation; negative = inhibition;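 also: % of control where 0% means no effect; inhibitors lower the polarisation; unlabelled MLL peptide was the positive control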
# gsp antagonist = gsp mutant antagonism; gsp-mutant cells, cAMP HTRF, 30 min; control for the full effect not named in the record; Potency, µM (series often up to 76.9 µM), for inactives: at the highest dose activity change, negative = inhibition, actives largely listed as inhibitors; 0.4% of 340,000 active; active = falling curve of any shape with a large fitted effect; inconclusive = falling curve, mostly with a smaller effect; inactive = flat or rising curve; cell line not stated here;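 also: intracellular cAMP measured with PDE inhibitor Ro 20-1724 present during compound exposure; potency is read from the fitted curve at half-maximal effect; % is scaled to controls: 0 for no effect and ±100 for the full control effect; nearly all actives have a fitted effect of over 65% in size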
#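 G418-selected cells were plated in DMEM/10% FBS for 16-24 h at 37C, then treated with compounds plus the PDE inhibitor […] (300 uM solution added) for 30 min at 37C. Intracellular cAMP was measured by HTRF after 30 min lysis at room temperature.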
# Sfp inh = blocks B. subtilis Sfp PPTase activity | Potency, µM, inactives show max response, negative = inhibition, usual class: inhibitors | Q9F4F7 | 3.5% of 310,000 active | Biochemical Sfp PPTase activity, qHTS; active = well fitted inhibition curve with a large enough effect; inconclusive = small, poorly fitted or top-dose-only effect, or another doubt; inactive = no such curve, though single readings can be large or run the other way;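 also: the enzyme is Sfp with the accession as filed and its product quenches rhodamine fluorescence; potency is read from the fitted curve at half-maximal effect; 0% = enzyme reaction without inhibitor and -100% = no enzyme wells; top concentration of the series not given in the record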
#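 Fluorescence-quenching assay: 15 nM Sfp-PPTase preincubated 15 min at room temperature with compound, then 5 uM rhodamine-CoA and 12.5 uM BHQ-2-labelled YbbR peptide added. Fluorescence (ex 525/em 598 nm) read at start and after 30 min; difference gives rate.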
# TRPV1 PAM = enhances activation of the human vanilloid receptor TRPV1 | potentiation, % at 8.33 µM | TRPV1-expressing cells, Fluo-8 calcium influx, capsaicin EC20 potentiation; host cell line not named in the record; control for the full effect not named in the record | 0.02% of 320,000 active; active means potentiation above 80%; inconclusive means 30% to 80%; inactive means below 30%; also: 0% is about no effect
#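 Cells expressing TRPV1 were dye-loaded with Fluo-8 and read kinetically: 10 s baseline, 3 min after compound (agonist portion), then 2 min after EC20 capsaicin (allosteric enhancer portion). Calcium-bound dye fluorescence at 480/520 nm.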
# An asterisk follows results filed as active; ? = inconclusive; . = no result given; [ ] = dose if it differs, or a comment.
# Second line of a record – Menin-MLL FL inh	TRPV1 PAM	gsp ag	ClpP mod	gsp antagonist	D2 potentiator	Sfp inh
> COc1ccc(-c2cnc3nc[nH]c(=O)c3n2)cc1
 : 1.8	-2	11%	?	-9%	-5	-6%
> COc1ccc(-c2noc(C3CCCN(C(=O)c4ccccc4C)C3)n2)cc1 (stereo not given)
 : -2.3	3	-1%	.	-28%	1	5%
> O=C(NC1CCCCC1)n1c(=O)oc2ccccc21
 : 1.1	-16	10%	0.9%	10%	-4	8%
> Cc1ccc(NN=C2C(=O)OC(C)(C)OC2=O)c(C)c1
 : -1.2	-20	-3%	1.5%	-1%	-10	-3%
> O=C(NNC(=O)c1ccccc1F)c1cccs1
 : .	3	1%[15.4 µM]	-1.7%	-6%	-2	11%
> Cc1ccc(C(=O)N2CCCC(Nc3cccc(F)c3)C2)cc1N1CCNC1=O (stereo not given)
 : .	-4	2%	-1.0%	-2%	-15	18%
> COc1ccc(NS(=O)(=O)c2ccc(C(=O)N3CCN(Cc4ccccc4)CC3)cc2)cc1
 : 2.6	10	?	-0.9%	-15%	1	12%
> COc1cccc(/C=C2\SC(=S)N(CCCC(=O)NC3=NCCS3)C2=O)c1
 : ?	5	-11%	0.6%	13%	-34	-8%
> CC(=O)Nc1ccc(NC(=O)CSc2nc3c([nH]c4ccccc43)c(=O)n2-c2ccccc2F)cc1
 : .	3	3%[15.4 µM]	-29%	?	0	24%
> C[C@H]1CN([C@@H](C)CO)C(=O)c2cccc(NS(=O)(=O)c3ccc(F)cc3)c2O[C@H]1CN(C)Cc1ccc(Cl)c(Cl)c1
 : .	.	-30%	-5.2%	-25%	-24	.
> Cc1cccc(-n2c(=S)[nH]c3sc4c(c3c2=O)CCc2ccccc2-4)c1
 : -1.4	15	13%[15.4 µM]	.	0%	-2	6%
> COc1ccc(C(=O)N2CCC(O)(c3ccc(Cl)cc3)CC2)cc1OC
 : 5.6	9	22%	-1.6%	3%	0	1%
> CC(=O)C(C(C)=O)C1(O)C(=O)c2ccccc2C1=O
 : 2.5	13	3%	0.7%	-6%	-47	-15%
> O=c1oc(-c2cccnc2)nc2ccccc12
 : -2.1	9	4%	2.1%	10%	-3	3%
> O=C(N/C(=C/c1ccco1)C(=O)N1CCCCCC1)c1ccccc1
 : 5.9	-9	3%	.	-1%	-5	0%
> Cc1cccc(N2CCN(C(=O)CCCSc3nc4ccccc4[nH]3)CC2)c1C
 : 2.6	2	-3%	1.0%	45µM*	-5	4%
> C=CCn1c(SCC(=O)NC(=O)NC)nnc1C1CCCCC1
 : -2.9	18	-4%[15.4 µM]	.	10%	5	-8%
> COc1cc(C(=O)N/N=C/c2ccc(OC(=O)c3cccc(C)c3)c(OC)c2)ccc1O
 : .	15	0%	-0.2%	-7%	5	11%
> CCCCCCCCn1cnc2c(N)c(C)c(C)cc21
 : 6.0	.	-39%[inhibitor]	-0.2%	-19%	-12	-9%
> CCC/C=N/NC(=O)c1cc(-c2ccccc2)nc2ccccc12
 : 1.9	3	6%	-13%	1%	-10	9%
> COCCN(C(=O)CSc1nnc(-c2ccc(Cl)cc2)o1)c1c(N)n(CC(C)C)c(=O)[nH]c1=O
 : 0.4	-3	?	1.6%	6%	-5	13%
> O=C(COC(=O)c1cccs1)Nc1ccccc1[N+](=O)[O-]
 : -2.0	-7	-4%	0.3%	7%	2	-2%
> O=C(Nc1cccc(O)c1)C1CC(c2cccc(Br)c2)=NO1 (stereo not given)
 : 1.7	8	5%[15.4 µM]	-0.4%	-9%	-10	20%
> CCc1cc(C(=O)NNC(=O)CCl)sc1C
 : -2.0	4	-52%[inhibitor]	0.8%	5%	-8	16%
> CCn1cc(/C=N\NC(=O)C2(C)CC2(Cl)Cl)c(C)n1 (stereo not given)
 : -1.4	17	-35%[inhibitor]	-0.8%	-9%	-1	?
> CCCOC(=O)CSc1nc(N2CCOCC2)c2c(c1C#N)CC(C)(C)OC2
 : 0.2	-12	-6%	.	-15%	11	6%
> Nc1nc(Nc2cccc(F)c2)nc(NCc2ccco2)c1[N+](=O)[O-]
 : 4.1	20	-25%	.	12%	-5	-17%
> O=C(CSCc1ccccc1)N1CCc2ccccc21
 : 3.1	-8	-1%	-3.0%	-14%	-16	1%
> CN1CCN(C(CNC(=O)C(=O)NC2CCCCC2)c2ccc(F)cc2)CC1 (stereo not given)
 : .	-9	8%	1.4%	9%	-23	.
> Cc1nc(-c2ccccc2)cs1
 : 0.1	8	-45%[inhibitor]	-1.8%	13%	6	12%

# Second line of a record – Menin-MLL FL inh	TRPV1 PAM	gsp ag	ClpP mod	gsp antagonist	D2 potentiator	Sfp inh
> CC1=CC(=NNS(=O)(=O)c2ccc([N+](=O)[O-])cc2)CC(C)(C)C1
 : .	.	-15%	.	-6%	-2	.
> Cc1ccc(CNC(=O)CCS(=O)(=O)c2cc(Br)cc3c2N(C(=O)C2CC2)CC3)o1
 : ?	-11	-1%	-2.9%	-2%	3	10µM*
> CCOc1ccccc1-n1c(SCC(=O)NC(C)(C)C)nnc1-c1ccoc1C
 : 4.6	3	-23%	1.9%	2%	-15	-7%
> Cc1cc2cc(CN3C(=O)c4ccccc4C3=O)ccc2n1C
 : -6.7	3	32µM*	0.6%	21%	0	11%
> Cc1cc(/C=C2/NC(=O)NC2=O)c(C)n1-c1sc2c(c1C#N)CCCC2
 : ?	-11	-19%	-6.3%	11%	-19	?
> C=CCc1cc(OC)ccc1OCCON1C(=O)CCC1=O
 : -1.0	5	11%	3.8%	9%	-3	2%
> COCCN(CC(=O)Nc1cccc(C)c1C)C(=O)c1cc2ccccc2cc1OC
 : .	20	17%	?	-1%	3	.
> CC1CC(C)CN(C(=O)COC(=O)COc2ccc(C#N)cc2)C1 (stereo not given)
 : .	.	-15%	0.4%	-22%	3	.
> O=C(CN(Cc1ccccc1)C(=O)c1csnn1)NCCc1ccccc1
 : -5.6	1	25%[15.4 µM]	.	-31%	-5	11%
> CC1CC(C)CN(CC(=O)Nc2cc(S(=O)(=O)N3CCOCC3)ccc2N2CCCC2)C1 (stereo not given)
 : .	-8	-14%	0.1%	5%	-1	.
> O=C(NCc1ccc(Cl)c(Cl)c1)C1CCCC1
 : .	.	-7%[15.4 µM]	.	6%	4	.
> CCN(CCCNC(=O)C1CCN(S(=O)(=O)c2cnc[nH]2)CC1)c1cccc(C)c1
 : 2.5	-7	?	-2.3%	7%	-1	-15%
> O=c1c2[nH]c3ccc(F)cc3c2nc2n1CCS2
 : 1.2	15	13%[15.4 µM]	.	-15%	3	3%
> O=C(NC1CCN(Cc2ccccc2)CC1)c1cccc(OC(F)F)c1
 : 6.3	-20	15%[15.4 µM]	.	8%	-24	14%
> Cc1nn(-c2ccccc2)nc1C(=O)Oc1cc(C(F)(F)F)nn1-c1ccccc1
 : 0.2	0	-23%	-21%	-4%	-6	10%
> Cc1cccc(CCNC(=O)c2cc(S(=O)(=O)N3CCOCC3)cn2C)c1
 : -0.3	18	?	-1.3%	0%	-4	7%
> Cc1cc(C)c(S(=O)(=O)c2ccccc2)c(OC(=O)c2c(F)cccc2F)n1
 : -0.3	?	-3%[15.4 µM]	.	21%	-10	19%
> O=C(/C(=C(\O)c1ccccc1)c1nc2ccccc2[nH]1)c1ccccc1
 : 1.5	-23	-2%[15.4 µM]	.	?	-3	4%
> CC(C)(C)[C@H]1COC(=O)[C@@H](NC(=O)OCC2c3ccccc3-c3ccccc32)C/C=C\C[C@@H](CC(=O)N[C@@H](CO)Cc2ccccc2)C(=O)N1
 : .	.	.	-2.6%	-6%	-11	.
> Cc1ccc(OCC(=O)N2CCN(C3=NS(=O)(=O)c4ccccc43)CC2)cc1
 : -4.2	12	-1%	-0.4%	-21%	4	6%
> CCCNS(=O)(=O)c1ccc(OCC(=O)NCCC2=CCCCC2)cc1
 : 1.8	-6	7%	1.1%	8%	-11	3%
> COc1ccc(NC(=O)CCCn2c(=O)oc3ccccc32)cc1Cl
 : 1.9	7	-7%	-0.2%	-7%	-1	12%
> COCCNS(=O)(=O)c1cc(C)c(C)cc1C
 : 6.2	-18	-23%	1.0%	5%	-6	12%

# 3 compounds picked at random from the list so far:
# Second line of a record – Menin-MLL FL inh	TRPV1 PAM	gsp ag	ClpP mod	gsp antagonist	D2 potentiator	Sfp inh
> Cc1cc2cc(CN3C(=O)c4ccccc4C3=O)ccc2n1C
 : -6.7	3	32µM*	0.6%	21%	0	11%
> Cc1ccc(CNC(=O)CCS(=O)(=O)c2cc(Br)cc3c2N(C(=O)C2CC2)CC3)o1
 : ?	-11	-1%	-2.9%	-2%	3	10µM*
> CC(C)(C)[C@H]1COC(=O)[C@@H](NC(=O)OCC2c3ccccc3-c3ccccc32)C/C=C\C[C@@H](CC(=O)N[C@@H](CO)Cc2ccccc2)C(=O)N1
 : .	.	.	-2.6%	-6%	-11	.

# Compound profiles, from the list above.
# `Cc1cc2cc(CN3C(=O)c4ccccc4C3=O)ccc2n1C` in the list: Menin-MLL FL inh = -6.7; TRPV1 PAM = 3; gsp ag = 32µM*; ClpP mod = 0.6%; gsp antagonist = 21%; D2 potentiator = 0; Sfp inh = 11%
# `O=C(/C(=C(\O)c1ccccc1)c1nc2ccccc2[nH]1)c1ccccc1` in the list: Menin-MLL FL inh = 1.5; TRPV1 PAM = -23; gsp ag = -2%[15.4 µM]; ClpP mod = .; gsp antagonist = ?; D2 potentiator = -3; Sfp inh = 4%
# `C=CCc1cc(OC)ccc1OCCON1C(=O)CCC1=O` in the list: Menin-MLL FL inh = -1.0; TRPV1 PAM = 5; gsp ag = 11%; ClpP mod = 3.8%; gsp antagonist = 9%; D2 potentiator = -3; Sfp inh = 2%

# Assay outcomes deposited in PubChem BioAssay by National Center for Advancing Translational Sciences (NCATS).
